HIV Env fusion – inhibitors of HIV Env-mediated cell fusion. HeLa-JRFL Env/CEM21 cell fusion, luciferase. inhibition, % at 12.3 µM. 360,000 tested, 1.1% active. AID 651610;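 active means mean replicate inhibition score of at least 50 and every replicate individually at or above 50; inconclusive means only one of the two criteria met; inactive means mean below 50 and not all replicates reaching 50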;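 further: 0% = plate neutral controls and 100% = maraviroc near 300 nM; one replicate is shown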
PABP FP inh – blocks human PABP binding to poly(A) RNA; P11940; fluorescence polarization; inhibition, % at 35 µM; 290,000 tested, 1% active; AID 2014;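 active means 50% or more with normal probe brightness, or confirmed in later tests; inconclusive means above 50% with abnormal brightness, or retests that disagree; inactive means below 50% or failed in later tests; about a fifth of its hits are not listed in these tables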;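 further: calls also rest on retests at 20 µM and on dose response follow-up; controls were probe without protein and protein plus probe with vehicle; some compounds called inactive have numbers as strong as hits; many hits fall short of the cut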
eIF4H FP inh – inhibitors of RNA binding by human eIF4H; 290,000 tested, 0.94% active; eIF4H fluorescence polarization binding assay; AID 2012; inhibition, % at 35 µM; Q15056;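 active means 50% or more with normal probe brightness, or confirmed in later tests; inconclusive means above 50% with abnormal brightness, or retests that disagree; inactive means below 50% or failed in later tests; about a fifth of its hits are not listed in these tables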;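 further: calls also rest on retests at 20 µM and on dose response follow-up; 0% = protein and probe with vehicle and 100% = probe without protein; strong numbers were not always called active; many hits fall short of the cut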
MT1-MMP act inh – MT1-MMP (human) activation inhibition; P50281; HT1080 RFP-PRO-GFP cells, GFP/RFP ratio fluorescence, overnight; percent of plate control window, DMSO zero; GFP/RFP ratio change, % at 20 µM; 360,000 tested, 0.061% active; AID 651647;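 active means GFP/RFP ratio change of at least 30% with cell ATP level not reduced by more than half and red fluorescence within 50% of control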; further: strong numbers were not always called active
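Material – HT1080 RFP-PRO-GFP cells · Control set – DMSO wells and RFP-L50D-GFP cells · Incubation – overnight cell settling, then overnight compound exposure, 37 °C, 5% CO2 · Compound dosing – single-point 20 µM compound, 1% DMSO · Read-out – GFP/RFP fluorescence ratio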
Rce1 inhib – yeast Ras-converting enzyme inhibition | calls only | 290,000 tested, 0.27% active | AID 2563 | Q03530 | yeast membranes, quenched prenylated peptide cleavage fluorescence;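 active means fall in fluorescence gain of 50% or more versus controls, with final raw signal at or below 3038400; inconclusive means same 50% fall but final raw signal above 3038400; inactive means fall in fluorescence gain under 50%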;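 further: plate controls were neutral control wells for no effect and wells lacking membranes for full effect; tested at 10 µM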
Target sequence (Q03530 whole entry, looked up): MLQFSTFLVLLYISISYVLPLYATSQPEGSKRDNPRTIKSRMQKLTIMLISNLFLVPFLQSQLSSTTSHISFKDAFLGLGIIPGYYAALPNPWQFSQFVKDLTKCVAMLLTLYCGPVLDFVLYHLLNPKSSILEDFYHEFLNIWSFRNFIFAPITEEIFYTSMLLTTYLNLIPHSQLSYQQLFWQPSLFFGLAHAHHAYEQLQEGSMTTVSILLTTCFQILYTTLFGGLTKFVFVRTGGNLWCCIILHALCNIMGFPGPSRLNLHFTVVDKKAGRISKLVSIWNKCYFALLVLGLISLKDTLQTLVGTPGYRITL
CSC inhib – cancer stem cell inhibition; 300,000 tested, 1.1% active; cancer stem cell-like cells viability, luminescence; inhibition, % at 7.5 µM; AID 2717;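 active means mean at 75% or more and at least half the replicates too; inconclusive means mean and replicates disagree; tested in HMLE shEcad cells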;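 further: 0% = median of negative and 100% = median of positive control wells; the first replicate is given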
UUG fidelity – modulators of start codon recognition fidelity in yeast; S. cerevisiae UUG-firefly luciferase reporter, luminescence/redox ratio; activity score, % at 18.7 µM; 350,000 tested, 0.13% active;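 active means replicate mean at a twofold rise or more, about +100% in these data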;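 further: firefly luciferase made from a UUG start codon reports start codon fidelity; reporter light over untreated wells divided by growth signal over untreated wells; some hits fall short of that in this replicate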
eIF4H FP inh retest – further read-out of eIF4H FP inh, marked with its call; inhibition, %; compound at 20 µM; confirmation average;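 mean of two retest wells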
PABP FP inh retest – further read-out of PABP FP inh, marked with its call; inhibition, %; compound at 20 µM; confirmation repeats;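 mean of two retest wells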
MT1-MMP act inh RFP – further read-out of MT1-MMP act inh, marked with its call; RFP signal change, %; measured here: RFP expression control read;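 0 = vehicle wells; hits needed this value within 50% of zero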
Starred values were filed as active, the others as inactive; i = inactive; ? = inconclusive; nt = no result given.

SMILES	HIV Env fusion	PABP FP inh	eIF4H FP inh	MT1-MMP act inh	MT1-MMP act inh RFP	Rce1 inhib	CSC inhib	UUG fidelity	others
Cc1ccc(CCNC(=O)C2CC(c3ccccc3[N+](=O)[O-])=NO2)cc1 (stereo not drawn)	4	1	-3	1	4	i	1	-13
O=C1CN(C(=O)c2ccccc2[N+](=O)[O-])C(c2ccccc2)c2cc(Br)ccc2N1 (stereo not drawn)	26	5	-1	-2	-3	i	-20	-6
CC(=O)N(c1ccc2oc(=O)sc2c1)S(=O)(=O)c1ccccc1	nt	-7	-14	4	2	i	-3	nt
Cc1ccc(NC(=O)[C@H](NC(=O)[C@@H]2Cc3ccccc3CN2)c2ccccc2)c(C)c1	-7	2	-11	0	4	i	-15	0
O=C(Nc1ccc2c(c1)OCCO2)c1c(F)cccc1F	nt	-1	5	3	-1	i	-5	-6
O=C(CN1C(=O)c2ccccc2S1(=O)=O)N1CCN(c2ccccc2F)CC1	nt	13	10	-1	7	i	12	-3
COC(=O)C1CCN(C(=O)NC2CCCCC2)CC1	nt	-8	-7	1	1	i	-15	-9
CCCSc1nnc(N2C(=O)C(O)=C(C(=O)c3ccco3)C2c2ccccc2F)s1 (stereo not drawn)	-4	95*	?	-45	6	i	-6	-16	PABP FP inh retest=126*
CC(NC(=O)CN(C)S(=O)(=O)c1ccc(Br)s1)c1ccccc1 (stereo not drawn)	13	-2	-8	2	-1	nt	8	-9
COc1ccc(S(=O)(=O)Nc2cc(OC)c(NC(=O)c3ccco3)cc2OC)cc1	-35	-4	-9	1	-4	i	-7	-16
COc1ccc(OC)c(S(=O)(=O)n2ccnc2C)c1	-101	-2	-1	6	4	i	2	-15
CNC(=S)N/N=C/c1cn(CCOc2ccc(OC)cc2)c2ccccc12	-8	-6	3	2	-4	i	46	nt
COc1ccc(CCNc2ncccc2C#N)cc1OC	-22	2	-2	2	3	i	5	-21
COC(=O)CSc1nc2c(c(=O)n(C)c(=O)n2C)n1CCCc1ccccc1	nt	-9	-4	1	9	i	-23	nt
CCn1c(SCC(=O)N2CCN(c3ccc(F)cc3)CC2)nnc1-c1ccncc1	nt	-1	7	1	-8	i	nt	-8
O=C(COc1cc(Cl)ccc1Cl)Nc1nnc(CC(=O)N2CCOCC2)s1	-10	-10	0	2	0	nt	4	-18
COc1ccc(C(=O)Nc2ccccc2)cc1NC(=O)c1ccc([N+](=O)[O-])cc1	-12	0	-20	5	0	nt	-9	-11
CCCCCCCn1c2c(c(=N)c3ccccc31)CCC2	45	62*	-4	-28	-35	i	40	nt
C/C(CC(=O)NC1CCCC1)=N\NC(=O)C1CCCCC1	-4	1	3	1	7	nt	nt	nt
O=C(NCc1cccnc1)c1cc(C2CCCN(C(=O)c3cccc(O)c3)C2)on1 (stereo not drawn)	-46	nt	nt	-9	-1	nt	nt	-11
O=c1c2cnn(-c3ccccc3)c2ncn1Cc1ccco1	nt	2	-5	6	1	i	0	-5
CCCOc1ccc(N2CC(C(=O)NC3=NCCS3)CC2=O)cc1 (stereo not drawn)	4	?	-12	-1	-2	nt	0	-14
CCC(=O)Nc1ccc(S(=O)(=O)Nc2ncccn2)cc1	19	10	3	5	15	i	-7	-3
CCn1nc(C)cc1C(=O)Sc1ccc(Cl)cc1Cl	14	-3	-6	-1	-3	i	4	-26
CCC(CC)C(=O)Nc1cccc(/C(C)=N/NC(=O)c2ccccc2Cl)c1	-67	-11	2	-6	-3	i	3	0
CCn1c(SCC(=O)N2CCCCC2C)nc2ccsc2c1=O (stereo not drawn)	-19	1	0	5	-3	i	-11	-10
Cc1cc(C)c2cc(C(=O)N(C)C3CCN(C)CC3)[nH]c2c1	8	-6	-6	1	3	i	31	-5
O=C(Nc1ccc(NC(=O)c2ccco2)nc1)c1ccccn1	-64	-12	-1	1	0	i	9	-39
CCOc1ccc(CNc2nc3ccccc3n2CCN2CCOCC2)cc1	nt	-6	10	7	2	i	-12	5
CNC(=O)C(=O)NCCN1CCN(C(=O)c2ccc([N+](=O)[O-])cc2)CC1	12	-4	-4	1	-3	i	-12	-14

3 entries drawn at random from those above:
SMILES	HIV Env fusion	PABP FP inh	eIF4H FP inh	MT1-MMP act inh	MT1-MMP act inh RFP	Rce1 inhib	CSC inhib	UUG fidelity	others
O=C(Nc1ccc(NC(=O)c2ccco2)nc1)c1ccccn1	-64	-12	-1	1	0	i	9	-39
CCC(=O)Nc1ccc(S(=O)(=O)Nc2ncccn2)cc1	19	10	3	5	15	i	-7	-3
CNC(=O)C(=O)NCCN1CCN(C(=O)c2ccc([N+](=O)[O-])cc2)CC1	12	-4	-4	1	-3	i	-12	-14

Next section
SMILES	HIV Env fusion	PABP FP inh	eIF4H FP inh	MT1-MMP act inh	MT1-MMP act inh RFP	Rce1 inhib	CSC inhib	UUG fidelity	others
COc1ccc(Nc2nc(N)nc(CSc3n[nH]c(-c4ccccc4)n3)n2)cc1	nt	-2	-3	2	-3	i	7	-17
CC(=O)n1nc(-c2cccnc2)nc1N	-66	1	-12	10	3	i	-14	-25
CCN(CC)S(=O)(=O)N1CCC(C(=O)NC2CCCc3ccccc32)CC1 (stereo not drawn)	nt	10	2	2	2	i	-11	nt
O=C1N[C@H](Cc2ccccc2)CO1	0	nt	nt	5	1	i	0	-13
CCn1c(=O)c([N+](=O)[O-])c(NCc2ccc3c(c2)OCO3)c2ccccc21	21	-1	2	6	-5	i	-4	-5
Cc1cc(=O)n2[nH]c(C(F)(F)F)c(-c3ccccc3)c2n1	nt	2	-6	-2	1	i	-4	-7
COc1ccc(-n2c(=O)cc(N3CCN(c4ccccc4F)CC3)[nH]c2=O)cc1	-35	3	-7	-2	1	nt	-5	-2
COc1ccc(Nc2nc(Cl)nc(N3CCN(c4ccc(OC)cc4)CC3)n2)cc1	16	3	1	nt	nt	i	-14	nt
CCN(C(=O)CSc1nnc(-c2cccs2)n1CC)C1CCS(=O)(=O)C1 (stereo not drawn)	-24	1	-6	1	2	i	-15	-7
COc1ccc(CC(NC(C)=O)C(=O)NC2CCN(C(=O)c3cccc(Cl)c3)CC2)cc1OC (stereo not drawn)	-10	-5	8	1	3	i	nt	-11
Cc1nc(SCC(=O)Nc2sccc2C(N)=O)c2c(C)c(C)sc2n1	-11	nt	nt	1	-2	nt	nt	-24
CCOc1ccc(NC(=O)C2CCCN(S(C)(=O)=O)C2)cc1 (stereo not drawn)	2	1	-3	4	-3	i	-11	3
COC(=O)c1ccc(N2C(=O)CC(SCC(=O)Nc3ccc(OC)cc3)C2=O)cc1 (stereo not drawn)	-1	-2	0	-1	4	i	0	nt
COc1ccc(CCNC(=O)[C@H](C)N2C(=O)N3CCc4c([nH]c5ccccc45)[C@@]3(C)C2=O)cc1OC	nt	1	-13	-2	-11	nt	-1	-19
CCCCOC(=O)C1=C(C)Nc2ncnn2C1c1cccc(OC)c1OC (stereo not drawn)	-56	-5	-8	-6	-2	i	1	-21
FC(F)(F)c1cc(-c2cccs2)nc2nc(N3CCOCC3)sc12	15	9	-4	-2	-5	i	-13	nt
Cc1ccc(-n2c(Cc3cccc4ccccc34)n[nH]c2=S)c(C)c1	12	15	-6	-9	-2	i	0	nt
COc1ccc(NC(=O)C(NS(=O)(=O)c2cccs2)C(C)C)cc1Cl (stereo not drawn)	-2	-1	10	0	-2	i	-6	-5
CC(=O)c1c(C)nc(Nc2nc3ccccc3s2)nc1C	-58	8	2	2	-4	i	-10	-7
CN(CC(=O)Nc1cccc(F)c1)C(=O)C1CCN(S(=O)(=O)c2ccc3c(c2)OCCO3)CC1	-1	nt	nt	9	-9	i	-3	-15
COc1ccc(S(=O)(=O)Nc2ccc(Cl)cn2)cc1	17	-3	-5	-3	0	nt	-11	-20
Cc1cc(C)cc(NC(=S)NCCN2CCOCC2)c1	6	nt	nt	0	10	i	-15	-25
CCOC(=O)C1=C(C)NC(c2cccs2)C(=O)N1 (stereo not drawn)	-47	1	-2	4	5	i	-3	nt
CCOc1ccccc1N1CCN(C(=S)NCc2ccco2)CC1	-89	74	-3	4	5	i	nt	nt	eIF4H FP inh retest=1;PABP FP inh retest=7
C/C(N)=C(/C#N)C(=O)COC(=O)CNS(=O)(=O)c1ccc2ccccc2c1	0	10	-7	-3	5	i	-15	nt
CCN(CC)C(=O)Cn1cc(/C=C(\C#N)C(=O)N2CCN(c3ccccc3)CC2)c2ccccc21	1	-3	-4	-2	0	i	nt	3
CCOC(=O)c1c(S(=O)(=O)Nc2ccccc2OCC)c(C)n(C)c1C	6	2	-8	3	3	i	-5	-11
CN(c1ccc(OCC(=O)Nc2ccccc2C(=O)O)cc1)S(=O)(=O)c1ccc(Cl)cc1	6	nt	nt	8	2	nt	49	-17
NC(=O)CC(O)c1cccc(Cl)c1 (stereo not drawn)	nt	0	-8	-7	-1	i	12	1
CCCNC(=O)NC(=O)COC(=O)c1ccc(S(=O)(=O)N(C)c2ccccc2OC)cc1	10	0	-3	-2	0	i	36	nt
COc1ccc(NC(=O)C2CCN(c3cnccn3)CC2)cc1Cl	10	19	-4	6	-2	i	-11	0
O=C(NCc1ccccn1)c1cc2ccccn2n1	-50	3	14	0	2	i	4	-14
COCc1nnc(NC(=O)C2CC(=O)N(C3CCCCC3)C2)s1 (stereo not drawn)	3	0	-6	-3	2	i	9	-12
CCN(CC)c1ccc(NC(=O)CN2CCN(CC(=O)Nc3ccc(OC)cc3)CC2)cc1	16	-5	-1	1	0	i	-14	-8
CC(C)c1nc(N2CCCC2)c(C#N)c2c1CCCC2	-30	-10	-12	-7	-2	i	48	-30
COc1ccc(-c2nn(-c3ccccc3)cc2CNCCN2CCOC2=O)c(F)c1	8	-11	-10	3	4	i	22	nt
O=C(NCCc1ccc(Cl)cc1)C12CC3CC(CC(O)(C3)C1)C2	1	-12	-9	-2	2	i	1	3
COc1ccc(S(=O)(=O)N2CCCN(CC(=O)Nc3cc(NC(C)=O)ccc3OC)CC2)cc1	nt	-3	-9	8	4	i	nt	-10
C/C(=N/Nc1ccnc2cc(Cl)ccc12)c1ccc(N)cc1	-143	nt	nt	9	-1	i	14	-3
N#Cc1cc([N+](=O)[O-])ccc1NC(=O)COC(=O)c1cnccn1	-7	nt	nt	2	3	nt	-28	nt
CCCn1nnnc1NC(=O)COc1ccc(CC)cc1	4	-10	0	7	3	i	13	nt
COc1ccc(-n2cc(C(=O)c3cc(Cl)ccc3O)cc(C#N)c2=O)cc1	7	-4	-2	-12	-6	i	-3	nt
CC(C)N1CCC1(C)C(=O)Nc1cc(-c2ccccc2)nn1C (stereo not drawn)	-22	nt	nt	-3	3	nt	nt	-22
COc1ccc(C)cc1Nc1n[n+](-c2ccccc2)c(-c2cccc(Cl)c2Cl)s1	-130	2	-16	-5	-14	i	69	-16
Cc1nc2nc[nH]n2c(=O)c1NC(=O)c1c(-c2ccccc2Cl)noc1C	nt	-2	1	2	-2	i	-14	-16
COc1cc(NC(=O)CN2CCN(CC(=O)Nc3ccccc3OC)CC2)cc(OC)c1	-40	-15	-6	2	-5	i	-11	-11
O=C(Cn1cc(-c2nnnn2-c2ccc(Cl)cc2)c(=O)c2ccccc21)c1ccccc1	-71	2	-1	4	-2	i	-2	-3
Cc1ccc(C(=O)OCC(=O)Nc2ccccc2C(F)(F)F)cc1S(=O)(=O)N1CCCCC1	0	nt	nt	-1	-8	nt	nt	-8

Some of the compounds tested; count on the stated rates, not on these rows.
